Six1-Eya2 inh: qHTS Assay for Inhibitors of the Six1/Eya2 Interaction; actives 0.56% (n = 360,000); Homeobox protein SIX1 (Homo sapiens) + Protein phosphatase EYA2 (Homo sapiens), …; activity change, % (no concentration beside the values); AlphaScreen GST-Six1/His-Eya2 binding, biochemical; stronger effect = lower value; control for the full effect not named in the record; in the data active = activity change below about -65%; inconclusive = about -30% to -65%; inactive = above about -30%; also: % is scaled to controls: 0 for no effect and ±100 for the full control effect; compound concentration not given in the record
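Compounds are tested against tagged Six1 and Eya2 proteins bridged by glutathione donor and nickel acceptor beads; after a one-hour incubation at 37 °C without light, AlphaScreen emission is recorded.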
PINK1 expr mod: A Quantitative High throughput Screen to Identify Chemical Modulators of PINK1 Expression; Potency, µM (top dose mostly 76.6 µM), for inactives: top-dose activation (PINK1 increase), most hits filed as activators; AID 624263, 2012; PINK1 immunofluorescence, high-content cytometry, 24 h; actives 0.2% (n = 410,000); active = well fitted activation curve with a large enough effect; inconclusive = small, poorly fitted or top-dose-only effect; inactive = flat fitted curve, though single readings scatter; cell line not stated here;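 also: potency is read from the fitted curve at half-maximal effect; % of control where 0% means no effect; nearly all actives have a fitted effect of over 65% in size; a mitochondrial uncoupler was the plate control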
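Fluorescence from anti-PINK1 antibody, together with nuclear and cell stains, was scanned on a laser-scanning cytometer. Before staining, stable-line cells were incubated 24 hours with compounds at 5 concentrations; primary antibody 12 h at 10 degrees C.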
D2 agonist: Beta-Arrestin HTS for Positive Allosteric Modulators of the Human D2 Dopamine Receptor: Agonists; activation, % (concentration not given with the values); DiscoveRx PathHunter D2 beta-arrestin, luminescence, 90 min; 100% = 57 uM dopamine signal; actives 0.084% (n = 360,000); D(2) dopamine receptor (Homo sapiens), P14416; in the data active = activation above about 40%; inconclusive = about 15% to 40%; inactive = below about 15%; also: compound concentration not given in the record; the text of the record calls up to 30% inactive
Target sequence (P14416 whole entry, looked up): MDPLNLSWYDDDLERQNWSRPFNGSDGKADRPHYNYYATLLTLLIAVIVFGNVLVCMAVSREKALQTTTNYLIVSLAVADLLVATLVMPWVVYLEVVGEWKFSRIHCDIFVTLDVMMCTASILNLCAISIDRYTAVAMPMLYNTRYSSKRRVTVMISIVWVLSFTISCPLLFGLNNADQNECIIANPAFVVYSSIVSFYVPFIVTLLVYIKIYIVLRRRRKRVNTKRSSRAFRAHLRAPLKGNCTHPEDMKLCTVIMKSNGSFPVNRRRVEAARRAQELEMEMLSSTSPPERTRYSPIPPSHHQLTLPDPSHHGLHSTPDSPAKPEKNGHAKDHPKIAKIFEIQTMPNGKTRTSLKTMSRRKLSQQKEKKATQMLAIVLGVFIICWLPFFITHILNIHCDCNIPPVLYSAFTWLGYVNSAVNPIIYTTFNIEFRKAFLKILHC
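DiscoveRx PathHunter D2 beta-arrestin cells (2,100/well) attached overnight, then compound-stimulated 90 min at 37 C in HBSS/10 mM HEPES/0.1% Tween-20 buffer; beta-galactosidase complementation read by luminescence after 1 h at ambient temperature. Dopamine 57 uM final (EC100) as control.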
CtBP-E1A blk: qHTS Assay for Inhibitors of the CtBP/E1A Interaction | AID 651724, 2012 | AlphaScreen GST-E1A/His-CtBP binding, 1536-well; stronger effect = lower value; control for the full effect not named in the record | actives 0.49% (n = 340,000) | activity change, % (test concentration not listed); in the data active means activity change below about -65%; inconclusive means about -30% to -65%; inactive means above about -30%; also: % is scaled to controls: 0 for no effect and ±100 for the full control effect; compound concentration not given in the record
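Homogeneous bead-based format: GST-tagged E1A captured on glutathione donor beads, His-tagged CtBP on nickel acceptor beads; compounds precede bead addition by 2 h at 37 °C.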
TRPML1 ag: qHTS for Agonists of the Human Mucolipin Transient Receptor Potential 1 (TRPML1). Mucolipin-1 (Homo sapiens), Q9GZU1. TRPML1-expressing cells, Ca2+ dye fluorescence, FDSS; host cell line not named in the record; reference of the full effect not given here. actives 0.12% (n = 410,000). activation, % (concentration not given with the values); in the data active = activation above about 50%; inconclusive = about 30% to 50%; inactive = below about 30%; also: 0% is about no effect; the text of the record puts the active cut at 80%
Target sequence (Q9GZU1 whole entry, looked up): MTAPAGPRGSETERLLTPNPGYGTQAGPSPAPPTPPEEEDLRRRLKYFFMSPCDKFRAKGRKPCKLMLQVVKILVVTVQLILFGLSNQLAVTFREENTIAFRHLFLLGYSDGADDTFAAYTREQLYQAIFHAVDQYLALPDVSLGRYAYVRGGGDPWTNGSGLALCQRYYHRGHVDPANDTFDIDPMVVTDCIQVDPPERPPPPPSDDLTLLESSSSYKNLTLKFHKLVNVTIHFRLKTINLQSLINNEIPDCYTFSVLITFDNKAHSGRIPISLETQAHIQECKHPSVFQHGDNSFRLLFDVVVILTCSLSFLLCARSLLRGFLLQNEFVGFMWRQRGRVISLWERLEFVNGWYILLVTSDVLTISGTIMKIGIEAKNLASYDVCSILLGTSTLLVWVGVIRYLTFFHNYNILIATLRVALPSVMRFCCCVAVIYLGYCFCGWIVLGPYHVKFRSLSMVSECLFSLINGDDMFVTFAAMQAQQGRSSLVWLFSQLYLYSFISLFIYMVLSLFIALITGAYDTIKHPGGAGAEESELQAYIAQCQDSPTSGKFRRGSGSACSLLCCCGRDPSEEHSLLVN
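TRPML1-DL cells, Tet-induced overnight (~16 h, 37 degrees C), loaded 45-90 min at room temperature with Ca8 no-wash calcium dye plus quencher. FDSS fluorescence: 10 s baseline, compound pin-transfer, 110 s agonist read, then EC80 54-4 (4uM final) and 110 s antagonist read.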
TRPML1 inh: qHTS for Inhibitors of the Human Mucolipin Transient Receptor Potential 1 (TRPML1) | actives 0.02% (n = 390,000) | AID 624415, 2012 | activity change, negative = inhibition, % (concentration not given with the values) | TRPML1-inducible cells, Ca2+ dye fluorescence, FDSS; stronger effect = lower value; inhibition of EC80 agonist-evoked calcium signal; in the data active means activity change below about -50%; inconclusive means about -30% to -50%; inactive means above about -30%;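 also: stimulus is agonist 54-4 at its EC80 concentration; % is scaled to controls: 0 for no effect and ±100 for the full control effect; compound concentration not given in the record; the text of the record puts the active cut at -80%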
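Calcium fluorescence in TRPML1-DL cells induced overnight with Tet: a 110 s read after compound pin addition, then a 110 s antagonist read after challenge with 54-4 at 4 uM final (EC80).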
* = called active by the depositor; ? = inconclusive; nt = no result given; [ ] = another dose, or the depositor's remark.

Results follow in this order: Six1-Eya2 inh	PINK1 expr mod	D2 agonist	CtBP-E1A blk	TRPML1 ag	TRPML1 inh
O=C(Nc1ccc2c(c1)CCC2)Nc1ccccc1F
    1.9	2.4%	-1.3	2.3	2.4	4.4
COc1cccc(NC(=O)c2csc3c2CCCCC3)c1
    nt	0.6%	nt	nt	0.5	11.0
COC(=O)c1sccc1S(=O)(=O)N1CCN(c2cccc(C)c2C)CC1
    nt	0.7%	nt	nt	2.4	20.6
CC(=O)c1cccc(CN2CCN(CC=C(C)C)C(CCO)C2)c1 (configuration not stated)
    9.3	-0.1%	-0.9	9.3	-0.4	3.6
O=C1/C(=C\c2ccc3ccccc3c2)CCCc2ccccc21
    -4.1	17.6%	-0.5	4.0	1.0	15.8
COc1ccc(OCc2nnc(SCC(=O)Nc3ccccc3F)o2)cc1
    3.9	5.0%	-1.0	-2.9	0.7	-13.5
Nc1nc2c(s1)COc1ccccc1-2
    -8.8	7.8%	-4.4	nt	0.8	6.0
O=C1NC2(CCSC2)C(=O)N1CC(=O)N(Cc1ccccc1)C1CCS(=O)(=O)C1 (configuration not stated)
    -4.9	-0.6%	-0.3	7.4	-0.7	-7.6
c1ccc(-c2ccnc3ncnn23)nc1
    10.0	-0.5%	-2.6	4.8	2.4	-3.1
CC(C)(C)c1nc(CN2CCCCC2)cc(CN2CCCCC2)c1O
    -10.9	0.2%	-2.2	-4.6	1.3	28.4
Cc1sc(NC(=O)c2ccc(=O)n(C)n2)nc1-c1ccccc1
    -7.0	3.0%	-1.1	6.4	1.7	3.9
Cc1ccc(S(=O)(=O)NC(=O)Nc2ccc(C)cc2C)cc1
    -14.1	-0.2%	-2.9	-7.7	0.0	46.7
Cc1nn(C(C)C(=O)NCc2cccc(F)c2)c(=O)c2c1sc1ccccc12 (configuration not stated)
    nt	-0.7%	nt	nt	3.2	6.5
CC(=O)[C@@]1(O)CC[C@H]2[C@@H]3C[C@H](C)C4=CC(=O)C=C[C@]4(C)[C@@]3(F)[C@@H](O)C[C@@]21C
    5.5	2.8%	-4.5	1.4	1.1	-23.2
CNC(=O)c1ccc(Nc2nnc(-c3ccc(C)c(S(=O)(=O)N(C)C)c3)c3ccccc23)cc1
    nt	0.7%	nt	nt	0.3	-3.6
CCN1C(=O)Cc2cc(S(=O)(=O)NCCc3ccccc3)ccc21
    1.4	8.0%	1.5	-0.9	1.3	-16.7
COc1ccc(NC(=O)COc2coc(CN3CCN(c4ccccc4)CC3)cc2=O)cc1
    3.4	4.1%	-2.0	-7.5	1.4	13.1
COc1ccccc1NS(=O)(=O)c1ccc(NC(C)=O)cc1
    -0.7	?	-0.4	2.6	-0.4	4.0
O=Cc1ccc(-n2cccn2)cc1
    5.1	-0.4%	-2.2	0.0	-0.5	2.1
COc1ccc(C2C(C(=O)N3CCN(c4ccccc4)CC3)c3ccccc3C(=O)N2C)cc1 (configuration not stated)
    -1.9	4.0%	0.4	3.3	-0.9	-6.3

New compounds follow.
Results follow in this order: Six1-Eya2 inh	PINK1 expr mod	D2 agonist	CtBP-E1A blk	TRPML1 ag	TRPML1 inh
O=C(CN(c1ccccc1)S(=O)(=O)c1ccccc1)Nc1ccc(F)cc1
    9.9	-0.4%	-1.3	3.2	2.8	24.0
CC(C)C[C@H](NC(=O)OC(C)(C)C)c1nnc(SCc2ccccc2)o1
    6.1	-1.1%	-3.6	-0.2	5.7	30.7
CC(=O)C[C@@H](O)CC(=O)[C@@H]1OC(=O)[C@H](C)C/C=C\Cc2ccccc21
    -7.0	2.0%	-0.4	3.3	-0.4	7.0
COc1cc(Nc2nc(SCc3ccccc3F)nc3ccccc23)cc(OC)c1
    nt	8.4%	nt	nt	1.6	?
COc1ccc(C(CNC(=O)CCNS(=O)(=O)c2ccc(Br)cc2)N2CCOCC2)cc1 (configuration not stated)
    4.6	-0.5%	-0.2	0.3	-0.7	-8.7
CCOC(=O)C(=CNc1ccc2c(c1)nnn2-c1ccc(Cl)cc1)C(=O)OCC
    -15.9	-3.6%	3.2	-4.6	1.1	4.3
CCOC(=O)c1cnc2c(Cl)cc(Cl)cc2c1NCCOCCO
    -0.3	nt	-0.1	5.5	-0.1	-8.2
CC(C)OCCCNC(=S)Nc1ccc2nc3n(c(=O)c2c1)CCCCC3
    -4.0	2.2%	-1.9	0.1	-0.2	4.3
O=C1Nc2ccc([N+](=O)[O-])cc2OC1CCN1CCN(Cc2ccc3c(c2)OCO3)CC1 (configuration not stated)
    -7.0	-0.2%	4.5	-0.2	1.3	7.5
Cc1ccc(-c2c(C)n([O-])c3c([n+]2=O)CCCC3)cc1
    7.3	-0.1%	2.7	11.9	0.3	-3.8
CCc1nnc(NC(=O)c2ccc(OC)cc2OC)s1
    -1.4	0.9%[38.3 µM]	0.7	1.5	0.6	20.7
N=c1c(C(=O)NCc2ccco2)cc2c(=O)n3ccccc3nc2n1CCc1ccccc1
    -77.9*	1.5%	-6.0	-66.9*	-0.9	-6.3
Cc1ccc(C)c(C(=O)CN2C(=O)NC3(CCC(C)CC3)C2=O)c1 (configuration not stated)
    -3.0	7.5%	-2.6	0.1	-0.2	12.9
CN1CCN(S(=O)(=O)c2ccc(NC(=O)c3ccc(Br)s3)cc2)CC1
    ?	-1.8%[38.3 µM]	-0.9	?	2.1	2.0
COc1ccc([C@H]2CC(=O)C=C(c3cccc(CO)c3)C2)cc1
    -2.2	1.1%	-5.6	1.2	-0.5	13.6
N#CC1(C#N)C(c2ccccc2)OC23CCCCCC2C1(C#N)C(=N)O3 (configuration not stated)
    0.8	0.8%	-1.0	-5.5	0.5	24.3
O=C(NC1CCCc2ccccc21)c1cc(F)cc(F)c1 (configuration not stated)
    0.0	0.4%	-4.2	7.6	4.6	19.3
CCCn1c(SCC(=O)Nc2ccc(Cl)cc2)n[nH]c1=O
    2.6	-0.6%	-0.6	7.2	-1.5	-7.3
COc1ccccc1NC(=O)CN1C(=O)C(C)(C)c2ccccc21
    nt	1.2%	nt	nt	-0.9	-2.4
CC1CCC(NC(=O)c2ccc3snnc3c2)CC1 (configuration not stated)
    17.0	3.6%	-3.5	nt	-1.2	-6.2

Further results follow:
Results follow in this order: Six1-Eya2 inh	PINK1 expr mod	D2 agonist	CtBP-E1A blk	TRPML1 ag	TRPML1 inh
Cc1ccc(Cc2ccc(C(=O)NNC(N)=S)o2)cc1
    -1.2	-0.4%	-8.5	1.9	1.1	11.3
COC(=O)[C@H](CC(C)C)NC(=O)Cn1cnc(C(=O)Nc2ccc(C)c(C)c2)n1
    0.6	-0.7%	-2.8	5.6	-0.3	23.3
Cc1[nH]c2ccccc2c1/C=N/Nc1ccc([N+](=O)[O-])cc1
    -27.2	3.2%	-11.8	-25.3	18.6	7.6
COC(=O)c1cc(OC)c(OC)c(OC)c1NC(=O)c1cc(=O)n(C)c(=O)n1C
    nt	-0.2%	nt	nt	0.1	4.5
CSc1ccc(CN2C(=O)NC3(CCCCCC3)C2=O)cc1
    -16.6	-1.6%	-3.8	-16.7	-0.6	-13.3
CCN(CC)S(=O)(=O)c1ccc2oc(C(=O)NCc3ccc(C)cc3)c(C)c2c1
    -0.1	1.3%[38.3 µM]	-0.3	3.4	-0.5	8.2
CCN1C(=O)[C@@H]2[C@@H](c3ccc(-c4ccc(Cl)c(Cl)c4)c(OC)c3)N3CCCC[C@@]3(C(=O)OC)[C@@H]2C1=O
    -3.2	4.9%	-4.5	-8.1	-0.3	58.8
CCCCOC(=O)n1c(SCC(=O)N(CC)CC)nc2ccccc21
    2.2	2.6%[38.3 µM]	-3.0	0.1	-0.6	37.8
O=C(CNS(=O)(=O)c1cccs1)Nc1ccc2c(c1)OCCO2
    -3.9	1.4%	-3.1	4.8	-0.2	3.9
CCC(C)(C)n1nnnc1C(c1ccccc1)N1CCc2ccccc2C1 (configuration not stated)
    4.4	-0.1%	0.5	2.0	0.4	10.5
CC(=O)Nc1ccc(-c2csc(NC(=O)Cc3cccc(F)c3)n2)cc1
    -25.8	8.3%	2.5	-11.0	-0.3	-2.4
O=C(CN1CCN(C2CCCCC2)CC1)c1ccc2cc[nH]c2c1
    -0.3	0.9%	-1.4	0.2	-0.1	13.8
O=C(CCl)N1c2ccccc2Sc2ccc3ccccc3c21
    -1.3	-2.3%	-1.8	5.2	-0.8	-0.1
O=C(CCNC(=O)c1ccccc1)OCN1C(=O)c2ccccc2C1=O
    6.3	0.4%	-3.0	5.9	-0.7	2.2
Cc1ccc(S(=O)(=O)c2nnn3c2nc(N2CCN(c4ccccc4F)CC2)c2ccccc23)cc1C
    nt	0.1%	nt	nt	0.3	22.4
O=C(CN1C(=O)S/C(=C\C=C\c2ccccc2)C1=O)NC1CCS(=O)(=O)C1 (configuration not stated)
    -0.5	3.4%	-2.0	-11.2	-0.5	-3.9
C=CCN1N=C(/C=C/c2ccccc2)CCC1=O
    1.5	0.9%	-2.3	1.0	-0.7	-16.7
COc1ccc(CN2CCCC(C(=O)c3ccc(SC)cc3)C2)cc1Cn1cccn1 (configuration not stated)
    3.4	-1.8%	-3.0	-21.0	1.5	32.7
O=C(O)COc1ccc(/C=N/n2c(COc3ccccc3)nc3ccccc3c2=O)cc1
    5.1	1.5%	13.3	14.8	-1.7	59.2
CCOc1ccc(Br)cc1S(=O)(=O)N1CCCC1
    -3.4	-0.2%	-0.4	-3.1	-0.8	16.0

(list continues)
Results follow in this order: Six1-Eya2 inh	PINK1 expr mod	D2 agonist	CtBP-E1A blk	TRPML1 ag	TRPML1 inh
O=CNc1ccc2c(c1)Cc1cc([N+](=O)[O-])ccc1-2
    -19.3	-1.5%	-0.3	-4.1	1.9	3.6
O=C(CN1CCN(S(=O)(=O)c2ccc(Br)cc2)CC1)N/N=C/c1cccnc1
    -2.5	1.3%	-3.0	-3.6	1.2	-12.2
O=c1[nH]ncc(NCc2ccc(Cl)cc2)c1Cl
    19.1	3.1%	0.3	37.0	1.0	?
Cc1nc(C)c(C(=O)N/N=C/c2c[nH]c3ccccc23)s1
    -12.1	0.4%	-0.2	-8.7	1.5	13.2
C=CCOc1ccc(C=CC(=O)c2c(O)c(OC)c(OC)c(OC)c2OC)cc1
    -2.2	0.8%	-4.7	-3.7	3.4	-13.8
CCC1(CC)NC(=O)N(CC(=O)OCc2nc3cc(C(=O)OC)ccc3c(=O)[nH]2)C1=O
    1.1	-2.9%	-0.3	-22.4	-0.1	-20.6
O=C(Nc1ccccc1)N1CCCN(Cc2c(F)cccc2Cl)CC1
    5.8	1.0%	2.8	11.9	0.1	-21.6
Cc1cccc(N2CCN(C(=O)c3cc4c(=O)n(C)c5ccccc5c4n3C)CC2)c1C
    -1.4	3.5%	-3.8	0.9	0.5	-7.2
CCCN1C(=O)CN(C2CCCCC2)C(=O)C1c1ccc(OC)c(OC)c1 (configuration not stated)
    nt	0.4%	nt	nt	0.5	2.6

Screens deposited in PubChem BioAssay by National Center for Advancing Translational Sciences (NCATS).
